GIV-Gai inh = GIV-Galpha-i interaction inhibition; P08753; Galpha-i3/FITC-GIV peptide fluorescence polarization, 90 min; stronger effect = lower value; scaled: aluminum fluoride 0%, vehicle 100%; percent of control (FP), % (test concentration not listed); 210,000 tested, 0.42% active; AID 1224905;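 active means replicate mean at 85% of control or lower, very high polarization wells dropped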;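 further: wells of about 15 µL received 100 nL stock; the first replicate is given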
Target sequence (P08753 whole entry, looked up): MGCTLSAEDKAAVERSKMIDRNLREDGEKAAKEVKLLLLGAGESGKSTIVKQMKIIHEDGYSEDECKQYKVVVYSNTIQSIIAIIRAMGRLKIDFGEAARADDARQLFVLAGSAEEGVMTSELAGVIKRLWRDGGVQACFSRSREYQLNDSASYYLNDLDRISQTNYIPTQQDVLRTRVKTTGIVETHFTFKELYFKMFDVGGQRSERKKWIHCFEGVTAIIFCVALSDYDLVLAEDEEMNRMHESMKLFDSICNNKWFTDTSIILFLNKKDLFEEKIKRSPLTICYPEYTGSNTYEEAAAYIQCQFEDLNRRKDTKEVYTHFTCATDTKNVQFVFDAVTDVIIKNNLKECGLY
Sa growth 42C = inhibitors of Staphylococcus aureus growth at 42 °C | AID 720641 | 170,000 tested, 0.53% active | relative growth, % (test concentration not listed) | S. aureus RN4220 growth, OD600, 20 h; stronger effect = lower value;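 active means growth at 42 °C up to 50% and 20 or more points under that at 30 °C, or under 10% at both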;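 further: 300 nL library stock went into each well; scaled to the means of positive and negative controls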
HCMV UL50-53 inh = cytomegalovirus nuclear egress complex inhibition; HTRF UL50-UL53 interaction, normalized percent inhibition; inhibition, % (test concentration not listed); 190,000 tested, 0.15% active; AID 1918969;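 active means both replicates at 50% or more, plus weaker picks with an unusually low signal ratio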;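 further: stock transfer was 100 nL into about 20 µL; 0% = negative control wells and 100% = wells with untagged competitor protein; inactives centre near -12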
Sa growth 42C second temp = recorded beside Sa growth 42C, whose call it bears; relative growth, %; measured here: growth at 30 °C;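 optical density after 20 h as mean of two plates; 100% = untreated growth and lower means inhibition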
* marks the source's active call; other numbers are inactive results; . = not tested or not shown.

(1) CC(C)=C1C2CCC1C(C(=O)N1CCN(c3ccccc3Cl)CC1)C2C(=O)O (stereo unspecified)
(2) CC(C)C(c1nnnn1C1CCCC1)N(Cc1ccc(Cl)cc1)CC1CCCO1 (stereo unspecified)
(3) O=C1NC(=S)N/C1=C/c1cc2ccccc2nc1N1CCCCC1
(4) CC(=O)c1ccc(NC(=O)c2nc3ccccc3n(C)c2=O)cc1
(5) CC(/C=C1\SC(=S)N(CCC(=O)Nc2ccc(O)c(C(=O)O)c2)C1=O)=C\c1ccccc1
(6) Cc1cc(=O)n2nc(N(C)CC(=O)N3CCCCC3)sc2n1

Assay by compound	1	2	3	4	5	6
GIV-Gai inh	95.1	105.7	.	104.5	146.3	96.3
Sa growth 42C	102.3	105.0	86.8	107.1	62.4	95.2
Sa growth 42C second temp	96.5	95.9	82.4	85.0	54.6	90.4
HCMV UL50-53 inh	-15.3	1.9	-29.7	.	.	.

(7) COC(=O)c1sc2ccccc2c1S(=O)(=O)N1CCN(c2ccccc2)CC1
(8) CN(C)c1ccc(N2CC(=O)SC2=NC#N)cc1
(9) Cc1ccc(N(C)C(=O)Cn2cnc3onc(-c4ccc(F)cc4)c3c2=O)cc1C
(10) Cc1ccc(C=Nc2ccc(C(N)=O)cc2)s1
(11) CC(NC(=O)C(=O)Nc1c2c(nn1-c1ccc(F)cc1)CSC2)c1ccccc1 (stereo unspecified)
(12) Cc1nn(CC(=O)Nc2ccc(S(N)(=O)=O)cc2)c(=O)c2ccccc12

Assay by compound	7	8	9	10	11	12
GIV-Gai inh	100.3	.	103.5	106.6	102.7	112.6
Sa growth 42C	95.1	105.5	114.0	80.2	145.9	.
Sa growth 42C second temp	87.5	79.9	99.2	104.4	81.3	.
HCMV UL50-53 inh	-32.9	-14.2	.	7.2	.	-7.8

(13) COc1ccc(N2CCN(C3(c4ccccc4)C(=O)c4ccccc4C3=O)CC2)cc1
(14) Fc1ccccc1/C=C/c1nn2c(Cc3ccccc3)nnc2s1
(15) COc1cc(NCC(O)Cn2nnnc2-c2ccccc2)c(OC)cc1Cl (stereo unspecified)
(16) CCOc1ccc(-c2nc3c(C#N)c[nH]n3c2NC2CCCC2)cc1
(17) O=C1C(=Cc2ccc(N3CCOCC3)o2)C(=O)c2ccccc21
(18) O=C(OCC(=O)N(C1CCCCC1)C1CCCCC1)c1ccncc1

Assay by compound	13	14	15	16	17	18
GIV-Gai inh	102.4	99.4	101.3	102.7	233.5	.
Sa growth 42C	118.9	.	.	117.3	77.3	98.8
Sa growth 42C second temp	89.2	.	.	93.1	80.4	95.1
HCMV UL50-53 inh	-9.9	-14.6	10.7	-6.5	-62.5	-13.0

(19) CCC(CC)c1nn2c(=O)cc(CSc3ccccc3NC(=O)c3ccco3)nc2s1
(20) O=C(O)CCCN1C(=O)c2ccccc2S1(=O)=O
(21) CCOc1ccc(S(=O)(=O)NCCC(=O)Nc2cccc(-c3nnc4n3CCCCC4)c2)cc1
(22) COc1ccc(-c2nc(CS(=O)CC(=O)NCc3ccccc3Cl)c(C)o2)cc1OC (stereo unspecified)
(23) COc1ccc(-c2noc(N3CCN(c4ccc(OC)cc4)CC3)n2)cc1
(24) O=C(Nc1c(-c2ccccc2)nc2ccccn12)c1ccc(Br)cc1

Assay by compound	19	20	21	22	23	24
GIV-Gai inh	107.7	98.6	.	102.2	104.1	106.2
Sa growth 42C	106.0	89.8	129.5	102.2	92.6	111.7
Sa growth 42C second temp	68.0	83.5	98.8	83.8	89.5	93.5
HCMV UL50-53 inh	-39.1	-26.3	-14.8	-30.4	.	8.8

(25) O=C(CSc1nc2ccccc2s1)N1CCc2ccccc2C1
(26) CCOC(=O)COc1ccc(/C=C2\SC(=O)N(Cc3ccc(F)cc3)C2=O)cc1OC
(27) CCS(=O)(=O)N1CCN(C(=O)c2ccc(OC)cc2)CC1
(28) CCOC(=O)C(C#N)C1(c2ccccc2OC)CCOC(C)(C)C1 (stereo unspecified)
(29) O=C(O)c1cc(Cl)nnc1Cl
(30) Cc1cc2nc(CSc3nc4ccc(NC(=O)Nc5ccccc5Cl)cc4s3)cc(=O)n2o1

Assay by compound	25	26	27	28	29	30
GIV-Gai inh	.	107.5	102.4	112.9	.	104.4
Sa growth 42C	82.1	.	102.1	127.2	111.9	.
Sa growth 42C second temp	100.7	.	80.2	91.4	88.4	.
HCMV UL50-53 inh	7.6	-2.9	9.5	.	-25.6	-5.7

(31) CCOC(=O)C1=C(C)N=c2s/c(=C\c3cc(Br)ccc3O)c(=O)n2C1c1ccc(OC)c(OC)c1 (stereo unspecified)
(32) COc1ccc(-c2cc(C(F)(F)F)nc(NCc3ccc(F)cc3)n2)cc1
(33) CCc1ccc2oc(-c3ccc(C)c(NC(=O)/C=C/c4ccco4)c3)nc2c1
(34) CN(C)CCC(=O)c1ccc2c(c1)OCO2
(35) COc1ccc(Br)c(C(=O)Nn2c(-c3cccc(Cl)c3)nc3ccccc3c2=O)c1
(36) CC(=O)N=Cc1c(C)c(C#N)c(=O)n(C)c1O

Assay by compound	31	32	33	34	35	36
GIV-Gai inh	106.7	101.7	102.8	99.0	100.4	.
Sa growth 42C	.	87.3	97.6	86.8	.	114.2
Sa growth 42C second temp	.	78.3	81.2	65.8	.	91.8
HCMV UL50-53 inh	-16.5	-9.9	-38.3	-28.3	-20.2	30.8

(37) COc1ccc(N2CCN(CCCNC(=O)c3cc(Nc4ccc(OC)cc4OC)nc4ccccc34)CC2)cc1
(38) CCOC(=O)C(=O)Nc1c(C(=O)Nc2cccc(F)c2)oc2ccccc12
(39) Cc1cccc(N2CCN(c3ncnc4c3nc3n4CCCCC3)CC2C)c1 (stereo unspecified)
(40) Cc1oc(-c2ccc(C(=O)NC3CC3)cc2)nc1CS(=O)(=O)c1ccccc1
(41) O=C(CSc1nc2ccccc2n1Cc1c(F)cccc1Cl)N1CCN(c2ccc(F)cc2)CC1
(42) CC(C)Cc1nnc(NC(=O)CCc2nc(-c3cc4ccccc4[nH]c3=O)no2)s1

Assay by compound	37	38	39	40	41	42
GIV-Gai inh	106.2	108.0	98.8	97.8	96.6	110.3
Sa growth 42C	100.4	101.0	104.0	94.8	107.4	.
Sa growth 42C second temp	85.8	91.0	91.1	84.5	82.0	.
HCMV UL50-53 inh	.	7.4	.	-23.9	-12.6	-21.1

(43) COc1ccc(C(=O)N(Cc2ccc(N(C)C)cc2)Cc2ccco2)cc1Cl
(44) CCO/N=C(/C)C1=C(O)C(C(=O)OC)C(C)(C)CC1=O (stereo unspecified)
(45) COc1cccc(-n2c(=O)c3c(C)c(C)sc3n(CC(=O)Nc3ccccc3OC)c2=O)c1
(46) O=C(N/N=C/c1ccc(N2CCOCC2)cc1)c1ccncc1
(47) O=C(CCC(=O)N1CCOc2ccccc21)NCc1cccs1
(48) CCCN1C(=O)C(Cc2nc3ccccc3c(=O)n2CC)c2ccccc21 (stereo unspecified)

Assay by compound	43	44	45	46	47	48
GIV-Gai inh	102.1	99.7	103.8	.	96.6	98.9
Sa growth 42C	108.4	83.9	98.3	101.8	94.5	96.5
Sa growth 42C second temp	89.0	100.2	86.3	101.1	87.5	63.0
HCMV UL50-53 inh	-5.4	-6.0	-1.4	-24.8	-7.5	-39.7

(49) N#Cc1ccccc1OCC(=O)C12CC3CC(CC(C3)C1)C2
(50) CN(C)c1oc(-c2ccccc2)nc1S(=O)(=O)c1ccc(Cl)cc1
(51) COCCNCc1c(C(=O)O)c(C)n(Cc2ccccc2C)c1C
(52) COc1ccc(S(=O)(=O)n2nc(-c3ccccc3)cc2N)cc1
(53) Cc1ccc(C(=O)NC(=S)NCc2ccco2)cc1
(54) Cc1noc(C(=O)N2CCCCC2C)c1Cl (stereo unspecified)

Assay by compound	49	50	51	52	53	54
GIV-Gai inh	.	103.8	104.4	96.7	105.6	94.2
Sa growth 42C	94.5	.	97.5	.	82.2	.
Sa growth 42C second temp	92.5	.	93.8	.	63.5	.
HCMV UL50-53 inh	-11.4	-17.5	12.5	-38.9	-12.0	-30.6

(55) O=C(NCCc1ccccc1)c1ccc2c(c1)OCCCO2
(56) N#CCC1=NC(=O)/C(=C/c2ccc(F)cc2)S1
(57) O=C(Nc1nc2cc3c(cc2s1)OCO3)c1ccc2ncsc2c1
(58) CCCN(CCC)C(=O)Cn1ccc(=N)c2ccccc21
(59) O=c1[nH]c(SCc2ccc(Cl)cc2)nc2c1CSC2
(60) O=c1[nH]c(=O)n(CCC2=CCCCC2)c(O)c1/C=C1/C=CC=N1

Assay by compound	55	56	57	58	59	60
GIV-Gai inh	.	.	103.3	94.9	98.6	103.8
Sa growth 42C	91.0	77.0	105.7	96.8	112.2	83.7
Sa growth 42C second temp	91.4	93.5	85.7	92.0	92.5	93.5
HCMV UL50-53 inh	-25.0	-10.2	-14.6	.	-15.2	-24.5

(61) O=C(O)c1cccc(NC(=S)NC(=O)c2cccnc2)c1
(62) Cc1ccc2oc(-c3cc(NC(=O)Cc4ccccc4)ccc3Cl)nc2c1
(63) O=C(Nc1ccc(N2CCC(n3cccc3)CC2)cc1)c1cccs1
(64) C=C(C)CSc1nnc(-c2cccc(S(=O)(=O)N3CCOCC3)c2)n1-c1cccc(Cl)c1
(65) CCOC(=O)C1CCN(C(=O)c2cc3c(Cl)ccc4c3n2CC(CC)O4)CC1 (stereo unspecified)
(66) CCCSc1ncc(Cl)c(C(=O)N(Cc2ccccc2)c2ccc(OC)cc2)n1

Assay by compound	61	62	63	64	65	66
GIV-Gai inh	105.0	103.0	105.5	.	102.7	106.0
Sa growth 42C	125.0	108.5	107.1	95.8	.	99.4
Sa growth 42C second temp	97.5	93.7	100.3	98.9	.	90.0
HCMV UL50-53 inh	-7.3	-11.6	6.8	-8.0	-7.0	-11.8

(67) CC(C)N(Cc1ccccc1)C(=O)c1c(F)cccc1Cl
(68) Cc1ccc(O)c(NC(=O)CCS(=O)(=O)c2nc(-c3ccc4c(c3)OCO4)cc(C(F)(F)F)n2)c1
(69) Cc1ccccc1OCCN1C(=O)NC2(CCC(C)CC2)C1=O (stereo unspecified)
(70) O=C(NCCc1ccccc1)c1nn2cccnc2c1Cl
(71) O=C(c1ccc(CSc2ccc(Cl)cc2)o1)N1CCOCC1
(72) CCc1cc2c(=O)c(-c3ccc4c(c3)OCCO4)c(C)oc2cc1O

Assay by compound	67	68	69	70	71	72
GIV-Gai inh	106.0	107.4	.	99.2	96.5	106.6
Sa growth 42C	113.5	93.8	91.2	96.6	104.6	92.8
Sa growth 42C second temp	93.9	51.5	91.1	103.5	78.0	88.1
HCMV UL50-53 inh	-8.8	-39.0	-5.6	-32.0	-22.3	-16.5

(73) CC(=O)Nc1c(C(C)C)cccc1C(C)C
(74) O=C(Nc1nccs1)c1cc2c(cc1Cl)N1CCCCCC1=NS2(=O)=O
(75) CC(=O)NS(=O)(=O)c1ccc(NC(=O)C2CCCN2C(=O)OC(C)(C)C)cc1 (stereo unspecified)
(76) COc1ccc(CCNC(=O)Cc2c(C)c3cc4c(C(C)(C)C)coc4c(C)c3oc2=O)cc1OC
(77) O=C(Nc1cccc(C(F)(F)F)c1)c1cc(-c2ccccc2)n[nH]1
(78) O=C(CC1Oc2ccccc2NC1=O)NCc1ccc(F)cc1 (stereo unspecified)

Assay by compound	73	74	75	76	77	78
GIV-Gai inh	.	.	.	99.7	.	107.4
Sa growth 42C	94.6	85.0	96.5	96.1	79.0	90.0
Sa growth 42C second temp	96.5	80.6	94.6	91.9	97.2	92.9
HCMV UL50-53 inh	-3.1	-14.3	1.5	-12.5	13.9	21.0

(79) Cc1cccc(NC(=O)NCC(=O)NC2CC2)c1
(80) CCOC(=O)c1c(C)sc(-c2c(-c3cc4ccccc4o3)[nH]c3c2c(=O)[nH]c(=O)n3C)c1O
(81) COc1ccc(CNC(=O)C(C)n2c(=O)cc(C)c3c(C)nn(-c4ccccc4)c32)cc1 (stereo unspecified)
(82) O=C(Sc1ccc(C(F)(F)F)cn1)c1csc(C2COc3ccccc3O2)n1 (stereo unspecified)
(83) O=C(O)c1ccc(CS(=O)(=O)c2ccc(C(F)(F)F)cn2)o1
(84) CN1CCCc2cc(/C=C3\CC/C(=C/c4ccc5c(c4)N(C)CCC5)C3=O)ccc21
(85) CCOC(=O)N1CCC(N2C(=O)c3ccc(C(=O)Nc4ccc(OC)c(Cl)c4)cc3C2=O)CC1
(86) CC(=O)Nc1nonc1-c1nc2ccccc2n1Cc1ccc(Cl)cc1Cl
(87) CCOC(=O)c1cc(-c2ccc(C)cc2)n(CC(=O)Nc2cccc(C(C)=O)c2)c1C

Assay by compound	79	80	81	82	83	84	85	86	87
GIV-Gai inh	.	268.3	100.5	96.2	97.0	-74.8*	107.5	101.0	104.6
Sa growth 42C	104.7	.	96.9	90.8	116.1	93.3	69.2	103.7	86.3
Sa growth 42C second temp	92.5	.	91.8	87.5	90.0	59.6	89.5	76.6	91.2
HCMV UL50-53 inh	23.1	-37.6	.	-14.6	-3.5	.	-7.3	-17.0	7.5

5 entries out of the list, ordered by count of non-hydrogen atoms, ascending:
(79) Cc1cccc(NC(=O)NCC(=O)NC2CC2)c1
(86) CC(=O)Nc1nonc1-c1nc2ccccc2n1Cc1ccc(Cl)cc1Cl
(84) CN1CCCc2cc(/C=C3\CC/C(=C/c4ccc5c(c4)N(C)CCC5)C3=O)ccc21
(87) CCOC(=O)c1cc(-c2ccc(C)cc2)n(CC(=O)Nc2cccc(C(C)=O)c2)c1C
(85) CCOC(=O)N1CCC(N2C(=O)c3ccc(C(=O)Nc4ccc(OC)c(Cl)c4)cc3C2=O)CC1

Assay by compound	79	86	84	87	85
GIV-Gai inh	.	101.0	-74.8*	104.6	107.5
Sa growth 42C	104.7	103.7	93.3	86.3	69.2
Sa growth 42C second temp	92.5	76.6	59.6	91.2	89.5
HCMV UL50-53 inh	23.1	-17.0	.	7.5	-7.3
